# Compound activity from PubChem.
# AF4-AF9 inh: inhibitors of AF4 peptide binding to AF9, primary screen, biochemical, AlphaScreen, biotin-AF4 peptide, FLAG-AF9, single point; 350,000 compounds, 0.47% hits; inhibition, % at 10 µM;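 active = every replicate reaching a set inhibition limit, whatever the replicate mean, cut at about 25% in these data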;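 also: 0% = plate neutral control median and 100% = total signal loss; the record names both 10 and 1 µM as test concentration; the first replicate is given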
# Target sequence (P42568 whole entry, looked up): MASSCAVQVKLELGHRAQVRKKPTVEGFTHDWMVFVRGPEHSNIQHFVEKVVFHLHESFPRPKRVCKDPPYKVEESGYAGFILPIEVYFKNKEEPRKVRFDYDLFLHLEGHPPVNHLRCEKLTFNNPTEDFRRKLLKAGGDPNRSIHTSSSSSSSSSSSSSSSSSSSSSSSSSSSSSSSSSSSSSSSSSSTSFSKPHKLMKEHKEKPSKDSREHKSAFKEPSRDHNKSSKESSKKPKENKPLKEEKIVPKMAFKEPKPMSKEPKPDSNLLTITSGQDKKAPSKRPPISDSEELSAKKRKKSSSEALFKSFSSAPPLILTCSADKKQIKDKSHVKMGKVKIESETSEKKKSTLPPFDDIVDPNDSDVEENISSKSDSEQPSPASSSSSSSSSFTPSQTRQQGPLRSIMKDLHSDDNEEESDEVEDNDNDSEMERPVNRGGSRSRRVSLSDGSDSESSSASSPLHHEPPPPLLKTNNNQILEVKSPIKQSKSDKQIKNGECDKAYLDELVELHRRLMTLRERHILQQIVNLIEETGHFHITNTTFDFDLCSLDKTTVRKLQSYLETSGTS
# Starred values were filed as active, the others as inactive; & = joins results of further samples. Not all compounds are listed; rates above refer to the full screens.
SMILES,AF4-AF9 inh
C[C@@H]1CCCCO[C@@H](CN(C)Cc2ccc(C(=O)O)cc2)[C@@H](C)CN([C@@H](C)CO)C(=O)c2cc(NC(=O)c3ccncc3)ccc2O1,-2.6
O=C(CCN1CCCCC1)NCC[C@H]1CC[C@H](NC(=O)Nc2ccc(Cl)cc2)[C@H](CO)O1,-0.3
COCCn1c(SCC(=O)NCCCN2CCCC2=O)nc2sc3c(c2c1=O)CCCC3,-3.6
COc1ccc(S(=O)(=O)Nc2ccc3c(c2)C(=O)N([C@H](C)CO)C[C@H](C)[C@H](CN(C)S(=O)(=O)c2ccc(Cl)cc2)OCCCC[C@@H](C)O3)cc1,-2.9
Cc1cccc(-c2ccc([C@H]3[C@H](CO)N4C(=O)CN(C(=O)NC5CCCCC5)C[C@@H]34)cc2)c1,-0.6
C[C@H]1CN([C@@H](C)CO)C(=O)c2cccc(NS(=O)(=O)c3ccc(F)cc3)c2O[C@H]1CN(C)Cc1ccc(C(F)(F)F)cc1,-2.5
COc1ccc(NC(=O)N[C@@H]2CC[C@@H](CCn3cc(C4(O)CCCC4)nn3)O[C@@H]2CO)cc1,-2.0
COc1ccc(-c2cc(NC=O)c3ncc(-c4ccc(C(C)=O)cc4)n3c2)cc1OC,2.2
C[C@@H]1CCCCO[C@@H](CN(C)C(=O)Nc2cccc3ccccc23)[C@H](C)CN([C@H](C)CO)C(=O)c2cc(NC(=O)Cc3ccccc3)ccc2O1,-2.6
Cc1noc(C)c1NC(=O)Nc1cccc2c1O[C@H](CN(C)C)[C@H](C)CN([C@@H](C)CO)C2=O,-0.6
COc1ccccc1NC(=O)C(C)OC(=O)C1CC(=O)N(Cc2ccco2)C1 (centres undefined),-0.3
O=C(C[C@@H]1CC[C@@H]2[C@H](COC[C@@H](O)CN2Cc2ccc(Oc3ccccc3)cc2)O1)N1CCOCC1,-0.7
C[C@@H]1CN([C@H](C)CO)C(=O)c2cc(-c3ccccc3)cnc2O[C@H]1CN(C)C(=O)C1CCCCC1,-1.1
CNC[C@@H]1Oc2ccc(NC(=O)Cc3cn(C)c4ccccc34)cc2CC(=O)N([C@H](C)CO)C[C@H]1C,0.4
C[C@@H]1CCCCO[C@H](CN(C)CC2CCCCC2)[C@@H](C)CN([C@H](C)CO)C(=O)c2cc(NC(=O)Cc3ccccc3)ccc2O1,-2.7
Cc1cc(C(=O)Nc2cccc3c2O[C@H](CN(C)Cc2ccc(C(=O)O)cc2)[C@@H](C)CN([C@H](C)CO)C3=O)n(C)n1,-0.7
N#C[C@H]1[C@H](c2ccc(C#Cc3ccc(F)cc3)cc2)[C@@H](CO)N1C(=O)C1CCC1,2.0
Cc1ccc(S(=O)(=O)N(C)C[C@H]2Oc3ccc(NC(=O)CCN4CCOCC4)cc3CC(=O)N([C@H](C)CO)C[C@H]2C)cc1,-0.1
CCCNC(=O)N1CC2(C1)[C@H](c1ccccc1)[C@H](CO)N2C(=O)C1CCC1,-2.0
C[C@@H]1CN([C@@H](C)CO)S(=O)(=O)c2ccc(C#Cc3ccccc3F)cc2O[C@H]1CN(C)C(=O)Cc1ccncc1,3.4
CNC[C@H]1Oc2ccc(NC(=O)Cc3cn(C)c4ccccc34)cc2CC(=O)N([C@H](C)CO)C[C@@H]1C,4.3
Cn1nc(C(C)(C)C)cc1C(=O)N1CCCCC1c1cc(C(=O)NCc2cccnc2)no1 (centres undefined),-4.0
CO[C@H]1CN(C)C(=O)c2cccc(C#N)c2OC[C@H]2O[C@H](CC[C@H]2OC)CCN(C)C(=O)[C@@H]1C,2.5
CCC(=O)Nc1ccc2c(c1)OC[C@@H](C)N(C(=O)c1ccncc1)C[C@@H](C)[C@H](OC)CN(C)C2=O,-0.6

# Next section (three carried over from the part before).
SMILES,AF4-AF9 inh
Cn1nc(C(C)(C)C)cc1C(=O)N1CCCCC1c1cc(C(=O)NCc2cccnc2)no1 (centres undefined),-4.0
CO[C@H]1CN(C)C(=O)c2cccc(C#N)c2OC[C@H]2O[C@H](CC[C@H]2OC)CCN(C)C(=O)[C@@H]1C,2.5
CCC(=O)Nc1ccc2c(c1)OC[C@@H](C)N(C(=O)c1ccncc1)C[C@@H](C)[C@H](OC)CN(C)C2=O,-0.6
CO[C@H]1CN(C)C(=O)c2cc(NC(C)=O)ccc2OC[C@H](C)N(C(=O)c2cnccn2)C[C@H]1C,2.7
O=c1[nH]c(=O)n2ncnc2[nH]1,-1.8
COCc1cn(CC[C@@H]2CC[C@H](NC(=O)Nc3c(C)noc3C)[C@H](CO)O2)nn1,-0.3
C[C@@H]1CN([C@@H](C)CO)C(=O)c2cc(-c3cncnc3)cnc2O[C@H]1CN(C)Cc1ccc(Oc2ccccc2)cc1,4.2
CCCC#Cc1ccc2c(c1)O[C@@H](CN(C)C(=O)COC)[C@H](C)CN([C@H](C)CO)S2(=O)=O,1.7
CCOC(=O)C1(C)CCCCN1C(=O)c1ccc(F)c(C)c1 (centres undefined),0.3
CC(C)CC(c1nc2ccccc2[nH]1)n1c(-c2ccccc2Br)nc2ccccc21 (centres undefined),0.2
CN(C)C(=O)c1cccc(-c2ccc([C@H]3[C@@H](C#N)N(C(=O)C4CCC4)[C@H]3CO)cc2)c1,-1.1
CC(C)(O)C#Cc1ccc([C@H]2[C@H](CO)N3CCCCN(C(=O)c4cccnc4)C[C@@H]23)cc1,-4.8
COc1ccc(C[C@@H]2CCc3cnnn3COC[C@@H](Cc3ccccc3)NC2=O)cc1,3.1
Cc1noc(C)c1S(=O)(=O)Nc1ccc2c(c1)C(=O)N([C@H](C)CO)C[C@@H](C)[C@H](CN(C)Cc1ccc(-c3ccccc3)cc1)O2,5.7
C[C@H](CO)N1C[C@H](C)[C@@H](CN(C)S(C)(=O)=O)OCc2cnnn2CCCC1=O,-2.3&0.5&0.4
C[C@@H]1CN([C@H](C)CO)S(=O)(=O)c2ccc(C3=CCCC3)cc2O[C@H]1CN(C)CC1CCCC1,9.8
CCCNC(=O)C[C@H]1CC[C@H]2[C@H](COc3ccc(NC(=O)Nc4ccccc4F)cc3C(=O)N2C)O1,0.8
COc1ccc(NC(=O)N[C@@H]2CC[C@@H](CCn3cc(-c4ccccc4)nn3)O[C@@H]2CO)cc1,-0.5
C[C@H]1CN([C@@H](C)CO)S(=O)(=O)c2ccc(C#CCN(C)C)cc2O[C@@H]1CN(C)C(=O)Nc1ccccc1F,1.6
CCCC(=O)Nc1ccc2c(c1)C(=O)N(C)C[C@H](OC)[C@@H](C)CN(C(=O)c1ccncc1)[C@@H](C)CO2,0.7
C[C@H](CO)N1C[C@H](C)[C@@H](CN(C)C)Oc2cc(C#Cc3ccccc3F)ccc2S1(=O)=O,-5.2
Cc1ccc(S(=O)(=O)N[C@H]2C=C[C@H](CC(=O)NCCc3ccncc3)O[C@@H]2CO)cc1,-1.8
CO[C@@H]1CN(C)C(=O)c2cc(NC(=O)C3CC3)ccc2OC[C@@H](C)N(Cc2cccc(F)c2)C[C@@H]1C,-4.8
Cc1ccc(-c2ccc3c(c2)O[C@H](CN(C)Cc2ccncc2)[C@H](C)CN([C@H](C)CO)S3(=O)=O)cc1,-2.5
CO[C@@H]1CC[C@H]2CCN(C)C(=O)[C@H](C)[C@H](OC)CN(C)C(=O)c3cccc(C#N)c3OC[C@H]1O2,-3.0
C[C@@H]1CN([C@@H](C)CO)C(=O)c2cc(C3=CCCCC3)cnc2O[C@@H]1CN(C)C(=O)c1ccc(F)cc1,-2.6
CC(=O)Nc1ccc2c(c1)C(=O)N(C)[C@H]1CC[C@H](CC(=O)Nc3ccc(Cl)cc3)O[C@@H]1CO2,0.5
C[C@@H]1CN([C@@H](C)CO)C(=O)Cc2cc(NS(=O)(=O)c3ccc(F)cc3)ccc2O[C@@H]1CN(C)C(=O)Nc1cccc2ccccc12,2.3
FC(F)(F)c1ccccc1NC(=S)Nc1cccc2cnccc12,0.3
Cc1cccc(C(O)c2ncc(-c3ccc4ccccc4c3)[nH]2)c1C (centres undefined),0.8
COc1ccccc1S(=O)(=O)N[C@H]1CC[C@@H](CC(=O)N2CCN(C)CC2)O[C@@H]1CO,-0.8
C[C@H](CO)N1C[C@H](C)[C@H](CN(C)S(C)(=O)=O)Oc2cc(C#CC3CCCC3)ccc2S1(=O)=O,4.3
COc1ccccc1-c1ccc2c(c1)O[C@H](CN(C)C(=O)c1cccnc1)[C@H](C)CN([C@@H](C)CO)S2(=O)=O,-2.6
C[C@H]1CN([C@@H](C)CO)C(=O)Cc2cc(NC(=O)CCN3CCOCC3)ccc2O[C@@H]1CN(C)C(=O)NC1CCCCC1,-2.6
O=C(N[C@@H]1CC[C@@H](CCNS(=O)(=O)c2ccc(Cl)cc2)O[C@@H]1CO)c1cccc(F)c1,-0.6
CC(C)NC(=O)N1CCCCN2[C@H](CO)[C@H](c3ccc(C#Cc4ccccc4)cc3)[C@@H]2C1,-5.3
C[C@H](CO)N1C[C@H](C)[C@@H](CN(C)Cc2ccc3c(c2)OCO3)Oc2ccc(NC(=O)Nc3ccc(C(F)(F)F)cc3)cc2C1=O,1.7
C[C@@H]1CN([C@H](C)CO)C(=O)Cc2cc(NC(=O)CCCCCC(=O)Nc3ccccc3N)ccc2O[C@@H]1CN(C)S(C)(=O)=O,0.2
CCOC(=O)C1CCN(C(=O)c2ccc3c(=O)n4nc(Nc5ccccc5OC)sc4nc3c2)CC1,-4.2
C/C=C/c1ccc2c(c1)O[C@@H](CN(C)Cc1ccccc1)[C@@H](C)CN([C@H](C)CO)S2(=O)=O,12.9
COc1ccc(-c2nc3c(Cl)cc(C(F)(F)F)cn3c2Cc2ccc(C)cc2)cc1OC,2.1
COc1ccc(-c2ccc3c(c2)[C@@H]2[C@@H](CCN2C(=O)NC(C)C)[C@H](CO)N3C)cc1,10.4
CC(C)NC(=O)Nc1ccc2c(c1)C(=O)N([C@@H](C)CO)C[C@H](C)[C@H](CN(C)Cc1ccncc1)O2,-3.7
C[C@H](O)C#Cc1ccc([C@@H]2[C@@H](CO)N3CCCCN(CC4CC4)C[C@H]23)cc1,4.5
Brc1ccc(-c2nc3ccc(Br)cn3c2Cc2ccccc2)cc1,3.8
CCOC(=O)N(C)C[C@@H]1OCc2cn(nn2)CCCC(=O)N([C@H](C)CO)C[C@@H]1C,0.3
CN(Cc1ccccc1)C(=O)c1ccc(NC(=O)Cc2ccc(NC(=O)C3CCN(C(=O)C4CC4)CC3)cc2)cc1,-0.9
COc1ccc(S(=O)(=O)Nc2ccc3c(c2)C(=O)N([C@@H](C)CO)C[C@H](C)[C@@H](CN(C)C(=O)c2ccncc2)OCCCC[C@H](C)O3)cc1,-4.4
C[C@H]1CN([C@@H](C)CO)C(=O)CCCn2nncc2CO[C@@H]1CN(C)C(=O)Nc1ccccc1C(F)(F)F,-2.4
CO[C@H]1CN(C)C(=O)c2ccc(NC(C)=O)cc2OC[C@H](C)N(C(=O)c2ccccn2)C[C@@H]1C,-1.2
CC(C)N(C[C@@H]1N[C@H](CO)[C@@H]1c1ccc(C2=CCCC2)cc1)C(=O)C1CC1,-7.8

# 5 compounds already listed, arranged by the number in AF4-AF9 inh, lowest first.
Structure	AF4-AF9 inh
CC(C)N(C[C@@H]1N[C@H](CO)[C@@H]1c1ccc(C2=CCCC2)cc1)C(=O)C1CC1	-7.8
CC(C)NC(=O)Nc1ccc2c(c1)C(=O)N([C@@H](C)CO)C[C@H](C)[C@H](CN(C)Cc1ccncc1)O2	-3.7
C[C@H]1CN([C@@H](C)CO)C(=O)CCCn2nncc2CO[C@@H]1CN(C)C(=O)Nc1ccccc1C(F)(F)F	-2.4
CN(Cc1ccccc1)C(=O)c1ccc(NC(=O)Cc2ccc(NC(=O)C3CCN(C(=O)C4CC4)CC3)cc2)cc1	-0.9
C[C@H](O)C#Cc1ccc([C@@H]2[C@@H](CO)N3CCCCN(CC4CC4)C[C@H]23)cc1	4.5

# Other structures:
SMILES,AF4-AF9 inh
CC(C)C#Cc1ccc([C@H]2[C@H]3CN(C(=O)c4ccc5c(c4)OCO5)CCCCN3[C@H]2CO)cc1,6.1
C[C@@H]1CCCCO[C@H](CN(C)CC2CC2)[C@@H](C)CN([C@@H](C)CO)C(=O)c2cc(NS(=O)(=O)c3ccc(F)cc3)ccc2O1,4.8
C[C@H](CO)N1C[C@H](C)[C@@H](CN(C)C(=O)Nc2ccc3c(c2)OCO3)Oc2ncc(C#CC3(O)CCCC3)cc2C1=O,-0.4
CN(C)C(=O)c1cccc(-c2ccc([C@@H]3[C@@H](CO)N4CCCCN(S(C)(=O)=O)C[C@H]34)cc2)c1,8.6
COC(=O)C[C@@H]1CC[C@H](NC(=O)Nc2ccc(C(F)(F)F)cc2)[C@@H](CO)O1,-0.5
COCc1cn(CC[C@H]2CC[C@@H](NC(=O)CCN3CCCCC3)[C@H](CO)O2)nn1,-13.3
COc1ccc(-c2nc3ccc(Cl)cn3c2CC(C)(C)C)cc1OC,0.6
C[C@@H]1CCCCO[C@@H](CN(C)C(=O)CCC(F)(F)F)[C@H](C)CN([C@H](C)CO)C(=O)c2cc(NC(=O)c3ccccc3)ccc2O1,-7.8
O=C1CCSC2=C1SCc1sccc12,0.9
COc1cccc(-c2ccc([C@@H]3[C@@H](C#N)N(C(=O)Cc4ccccc4)[C@H]3CO)cc2)c1,0.2
COc1ccc2c(c1)/C(=C\c1cccc(/C=C3/C(=O)Nc4ccc(OC)cc43)n1)C(=O)N2,-13.4
C[C@H](CO)N1C[C@H](C)[C@H](CN(C)S(=O)(=O)c2ccccc2)Oc2ccc(NC(=O)Cc3ccccc3)cc2C1=O,-2.0
COc1ccc2c3c([nH]c2c1)[C@H](CO)N(C(C)=O)CC31CCN(C(=O)Nc2c(C)noc2C)CC1,-10.8
COc1ccc(CN2[C@H](CO)[C@H]3c4ccccc4N(C(=O)CC(F)(F)F)C[C@H]32)cc1,0.0
CCCc1c(-c2ccc(Cl)cc2)ncn1Cc1ccccc1OC,4.7
CC(C)NC(=O)N(C)C[C@H]1OCCCC[C@@H](C)Oc2ccc(NS(=O)(=O)c3ccc(Cl)cc3)cc2C(=O)N([C@H](C)CO)C[C@H]1C,-1.0
